HPGD inh = qHTS Assay for Inhibitors of HPGD (15-Hydroxyprostaglandin Dehydrogenase); 15-hydroxyprostaglandin dehydrogenase [NAD(+)] (Homo sapiens), P15428; purified HPGD, NADH fluorescence kinetic, PGE2 substrate; Potency, µM, without a hit: at the top dose activity change, negative = inhibition, hits mostly inhibitors; actives 4.3% (n = 150,000); AID 894, 2007; active = well fitted inhibition curve with a large enough effect (not every such curve was filed as active); inconclusive = small, poorly fitted or top-dose-only effect, or another doubt; inactive = no such curve, though single readings can be large or run the other way;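 further: top concentration of the series not given in the record; plate controls included wells without enzyme; inactives centre near -10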
Target sequence (P15428 whole entry, looked up): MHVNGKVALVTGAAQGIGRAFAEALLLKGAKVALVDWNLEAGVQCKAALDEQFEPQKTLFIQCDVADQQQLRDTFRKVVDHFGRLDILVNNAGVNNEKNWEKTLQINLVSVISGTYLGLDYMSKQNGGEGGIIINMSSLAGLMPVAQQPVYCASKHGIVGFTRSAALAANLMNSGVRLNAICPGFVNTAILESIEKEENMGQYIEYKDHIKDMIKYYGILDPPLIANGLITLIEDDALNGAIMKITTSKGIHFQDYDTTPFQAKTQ
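NADH formation kinetics: reaction with 30 uM PGE2 and 1 mM NAD+ (final), 20 nM enzyme, Tris-HCl pH 8 with Tween 20, after 15 min compound preincubation at room temperature. Fluorescence change, last versus first of five reads.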
* marks the source's active call; other numbers are inactive results; ? = inconclusive; & = joins results of further samples. On the % scale 0 is the no-effect control and ±100 the full control effect; potency means the concentration at half of the fitted maximal effect. Not all compounds are listed. The share of hits here may be higher or lower than overall.

SMILES	HPGD inh
C(/C=C\c1ccccc1)=Nc1ccc2c(c1)Cc1ccccc1-2	-17%
CN1C/C(=C/c2cccnc2)C(=O)/C(=C/c2cccnc2)C1	-12%
Cc1cccc(NS(=O)(=O)c2cc(C(=O)N3CCCC3)ccc2Cl)c1	-15%
Cc1nc2ccccn2c1C(=O)NC1CCCCC1	?
CC(C)OCCCNC(=O)c1ccc(NC(=O)C2CCCO2)cc1 (configuration not stated)	-14%
COc1ccc(NC(=O)CSc2nnc(Cn3c(=O)sc4ccccc43)n2C)c(OC)c1	-14%
CCN(CC)S(=O)(=O)c1ccc(N2CCOCC2)c(NS(=O)(=O)c2ccc(C(C)C)cc2)c1	-4%
COc1ccc(-c2noc(COc3ccc4ccccc4c3Br)n2)cc1OC	-6%
CCOC(=O)c1sc(NC(=O)Nc2ccccc2F)nc1C	-9%
CCN1CCCC1CNC(=O)c1cc(S(=O)(=O)CC)c(N)cc1OC (configuration not stated)	-16%
CC(C)(C)c1ccc(/C=N/NC(=O)C(=O)NCCCN2CCOCC2)cc1	-3%
COc1cc(OC)c(NC(=O)Nc2ccc(OC)c(OC)c2)cc1Cl	-9%
COc1ccc(C(C(=O)NC2CCCC2)N(C(=O)c2ccoc2C)c2cc(C)cc(C)c2)cc1 (configuration not stated)	-9%
CCC(C)(C)NC(=O)C(c1cccn1C)N(C(=O)Cn1nnc2ccccc21)c1ccc(OC)cc1 (configuration not stated)	-6%
CCCN1Cc2cccc(C(=O)N3CCN(c4ccc(F)cc4)CC3)c2C1=O	-15%
CC1CCCC(NC(=O)COC(=O)c2ccccc2Sc2ccccc2C#N)C1C (configuration not stated)	-25%
COc1cc(CN2CCN(S(=O)(=O)c3ccc(NC(C)=O)cc3)CC2)cc(OC)c1O	-7%
Cc1cc(F)ccc1NCc1ccncc1	-6%
CC(C)C(NS(=O)(=O)c1cccc2nsnc12)C(=O)NCc1ccc2c(c1)OCO2 (configuration not stated)	-6%
Cc1cccc2cc3c(NC(=O)C(C)C)nn(C)c3nc12	-19%
O=C(c1cccc([N+](=O)[O-])c1)N(c1ccccn1)c1ccccn1	7%
COC(=O)Cc1cc(=O)n2[nH]c(C)c(-c3ccccc3)c2n1	-25%
O=C(Cn1cnc([N+](=O)[O-])n1)N/N=C/c1cccc2ccccc12	-8%
O=C(NC(=S)Nc1ccc(NC(=O)c2cccs2)cc1)c1ccco1	-23%
O=C(Cn1c(=O)[nH]n(-c2ccccc2)c1=O)N1CCCc2ccccc21	-6%

(continued)
SMILES	HPGD inh
CCOC(=O)c1c(NC(=O)CSc2nc3ccccc3s2)sc(C)c1C	-19%
CCc1ccccc1N=C1S/C(=C/c2ccccc2OCC(=O)N2CCOCC2)C(=O)N1C	-4%
CCOC(=O)N1CCN(C(=O)CSc2nnc(-c3cccc(Cl)c3)o2)CC1	-8%
O=c1c(Cc2ccc(Cl)cc2)c(O)ccn1Cc1cccc(Cl)c1	-5%
CC(=O)N[C@@H](c1ccccc1)[C@]1(C)C[C@H]1[C@@H](C)C(=O)Nc1ccc2ccccc2c1	-4%
O=S(=O)(Cc1ccccc1Cl)CC(O)COc1ccccc1Cl (configuration not stated)	11µM*
COC(=O)Cc1c(C)nc2nc(-c3ccccc3)[nH]n2c1=O	-24%
CCOC(=O)CCNC(=O)c1ccccc1Br	18µM*
O=C(COC(=O)c1ccccc1O)Nc1ccc(OC(F)F)cc1	?
O=C(NC(c1ccccc1)c1ccccc1)C1(c2cccs2)CCOCC1	-2%
COc1ccccc1CC(=O)Nc1ccc(-c2noc(COc3ccc(Br)cc3)n2)cc1	-8%
O=C(O)C1CCCCC1C(=O)Nc1ccc(F)cc1F (configuration not stated)	-1%
CCc1ccc(C(=O)COC(=O)c2cnccn2)cc1	-16%
COc1ccc(C(=O)NCC(=O)Nc2ccc(F)cc2)cc1OC	-3%
CCCCC	-1%
Cc1c(Cl)c([N+](=O)[O-])nn1CCCC(=O)Nc1ccc(Cl)cc1Cl	-4%
COc1ccc(OC)c(CNC(=O)C2CCCN(c3nc4ccccc4o3)C2)c1 (configuration not stated)	-14%
Cc1ccc(NC2(c3nnnn3-c3c(C)cccc3C)CCCCC2)cc1	-7%
CC(C)NC(=O)N1CCCC2(CCN(C(=O)c3cccn3C)CC2)C1	-9%
COc1ccc(OC)c(NC(=S)NN2CCOCC2)c1	-4%
O=C(COC(=O)c1cc(S(=O)(=O)N2CCOCC2)ccc1F)c1ccc[nH]1	2%
O=C(CCCN1CCC(O)(c2cccc(C(F)(F)F)c2)CC1)c1ccc(F)cc1	-12%
Cc1ccc(-n2c(SCC3CCCCO3)nnc2-c2ccco2)cc1 (configuration not stated)	16µM*
COc1ccc(-c2cc3ccccc3n2CC(O)CNC(CO)(CO)CO)cc1 (configuration not stated)	-10%
COc1cc(C2N(c3cccc(Cl)c3)C(=O)C3CCCN32)cc(OC)c1OC (configuration not stated)	-3%

(list continues)
SMILES	HPGD inh
NC(=O)CSc1nnc(-c2cc(-c3cccs3)nc3ccccc23)o1	?
NC(=O)CC[C@@H]1NC(=O)[C@H](CO)NC(=O)c2cc([N+](=O)[O-])cc(I)c2NCCC[C@@H](C(N)=O)NC(=O)[C@H](Cc2ccc(O)cc2)NC1=O	-1%
Cc1cc(Cl)c(S(=O)(=O)NC2CCCC2)cc1OCC(=O)NC1CCCCC1	-1%
CS(=O)(=O)N1CCC(C(=O)Nc2c(F)cccc2F)CC1	1%
Brc1ccccc1Cn1c(-c2cscn2)nc2ccccc21	-4%
Cc1ccc(C(=O)/C=C2\NCC(C)NC2=O)cc1 (configuration not stated)	-10%
N#C/C(=C(\O)c1ccco1)c1ccccn1	-25%
O=C(CSc1nnc(CNC(=O)C23CC4CC(CC(C4)C2)C3)n1-c1ccc(F)cc1)Nc1ccccc1	0%
CC(=O)Nc1cc2nn(-c3ccccc3)nc2cc1Cl	?
O=S1CCCSC1c1cccnc1 (configuration not stated)	-14%
CCOc1cc(C=O)ccc1OS(=O)(=O)c1ccc(NC(C)=O)cc1	-10%
O=C(Nc1ccccc1Cc1ccccc1)c1ccc2c(c1)SC1=NS(=O)(=O)CCN12	-3%
Cn1c(=O)n(C)c2cc(NC(=O)CSc3nnc(-c4ccccc4O)n3-c3ccccc3)ccc21	-23%
CCC(=O)Nc1cccc(NC(=O)CSc2nnnn2C)c1	-3%
COc1ccc(OCCCCOc2ccccc2Cl)cc1	-12%
CCC(NC(=O)c1ccccc1O)c1ccccc1 (configuration not stated)	?
CCCCC/C=C\C/C=C\C/C=C\CCCCCCC(=O)NCCc1ccc(O)c(O)c1	0%
Cc1ccc(Cl)cc1N1CCN(S(=O)(=O)c2c(C)[nH]c(=O)[nH]c2=O)CC1	-5%
Cc1ccc(S(=O)(=O)N/N=C/c2c(C)nn(-c3ccccc3)c2C)cc1	-17%
O=C(c1ccncc1)N1CCC2(CC1)CN(Cc1cc(C(F)(F)F)cc(C(F)(F)F)c1)C2	-7%
C[C@H](NC(=O)/C(C#N)=C/c1ccc(O)c(O)c1)c1ccccc1	6%&-21%
N=C(N)SCc1cccc2c(=O)cc(-c3ccccc3)oc12	-11%
Cn1nc(CC(=O)Nc2ccc3c(c2)CCC3)c2ccccc2c1=O	-2%
CC(OC(=O)c1ccc(S(=O)(=O)NCc2ccco2)cc1)C(=O)Nc1ccc(Cl)cn1 (configuration not stated)	-12%
CSc1nnc(NC(=O)C2CCCCC2)s1	-4%

(further entries)
SMILES	HPGD inh
CC(=O)c1nn(-c2ccc(Br)cc2)cc1C(=O)c1ccco1	-7%
Cc1ccc(N(CN2C(=O)c3ccccc3C2=O)C(=O)c2ccc([N+](=O)[O-])cc2[N+](=O)[O-])cc1	-6%
CCOC(=O)c1sc2nccc(N(C)C)c2c1N=CNOCc1ccccc1	-24%
Cc1ccsc1C(=O)NC(C)c1ccc2c(c1)OCO2 (configuration not stated)	-8%
O=C(O)CCCC(=O)Nc1cccc2cccnc12	-8%
C=CCn1c(SCC(=O)c2[nH]c(C)c(C(=O)OC)c2C)nc2scc(-c3ccc(OC)c(OC)c3)c2c1=O	-18%
COC1=C(OC)C(=O)c2ccccc2C1=O	?
FC(F)(F)c1cc(C(F)(F)F)c2ccc(N3CCN(c4ncccn4)CC3)nc2n1	-5%
CCOC(=O)c1sc(N(C)C)nc1-c1ccccc1	?
CCOC(=O)c1c(CN(C)C)n(C)c2ccc(OC(C)=O)cc12	-10%
CCCCN(C)S(=O)(=O)c1c(C)[nH]c(=O)[nH]c1=O	-3%
Cc1cc(C)c(NC(=O)Nc2ccccc2)c(Cl)c1	-5%
Cc1cc2ncc(-c3ncc(C(F)(F)F)cc3Cl)cn2n1	-6%
O=C(O)C1CCCN1C(=O)c1cncc(Br)c1 (configuration not stated)	2%
CN(CC1CCCO1)S(=O)(=O)c1ccc(C(=O)Nc2nc(-c3ccccn3)cs2)cc1 (configuration not stated)	-16%
Cc1cc(C)nc(NC(=O)CCCC(=O)O)c1	-9%
Cc1ccccc1NC(=O)c1ocnc1C	-10%
O=C(Nc1cccc(Br)c1)/C(=C\c1cccnc1)NC(=O)c1ccco1	-17%
COc1ccc(NC(=O)c2cccnc2)c(OC)c1	-14%
CN(C)CCNC(=O)c1ccc(-n2c(=O)c(=O)[nH]c3ccccc32)cc1	-12%
COC(=O)c1ccccc1NC(=S)NC(=O)CC(C)C	-3%
c1ccc(C[n+]2csc3ccccc32)cc1	14µM*
S=c1[nH]nc(-c2ccco2)n1/N=C/c1ccc(Br)s1	2.8µM*
COc1cccc(C2c3c(oc4ccc(F)cc4c3=O)C(=O)N2CCCN2CCOCC2)c1 (configuration not stated)	-6%
CCCCc1ccc(NC(=O)COCC)cc1	10µM*

Following part:
SMILES	HPGD inh
COCCCNC(=O)c1sc2ncnc(N3CCc4ccccc4C3)c2c1C	?
CN(C)S(=O)(=O)c1ccc(N2CCCC2)c(C(=O)Nc2nc(-c3cc(F)ccc3F)cs2)c1	?
CCOC(=O)N1CCN(CC(=O)Nc2c(C(=O)OC)[nH]c3ccc(Cl)cc23)CC1	?
O=C1N(c2ccccc2)C(c2ccc(Cl)cc2)N2CCCN12 (configuration not stated)	-2%
O=C(Nc1scc(-c2ccc(F)cc2)c1C(=O)O)c1ccco1	-19%
O=C(CCN1CCCC1)Nc1cccc(Br)c1	-16%
CC(=O)Nc1nc(C)c(Oc2ccccc2)c(=O)[nH]1	0%
CCc1ccc(C(=O)C(C)OC(=O)C2COc3ccccc3O2)cc1 (configuration not stated)	-14%
CC(=NCC(=O)O)c1ccccc1	0%
CCOC(=O)/C(O)=C/c1ncc(C(F)(F)F)cc1Cl	-16%
CCOc1ncccc1C(=O)OCC(=O)NCCc1ccccc1	-8%
COCCn1c(C)cc(C2=NNC(=Nc3ccccc3F)SC2)c1C	-23%
C=CCn1c(-c2ccc(Cl)cc2)ccc(C#N)c1=O	?
C/C(Cl)=C/Cn1c(N2CCCC2)nc2c1c(=O)n(C)c(=O)n2C	1%
O=[N+]([O-])c1ccc(/C=C/c2ccc3cccc([N+](=O)[O-])c3n2)cc1	?
CCOC(=O)C(NS(=O)(=O)c1ccccc1)(C(F)(F)F)P(=O)(OC(C)C)OC(C)C (configuration not stated)	-8%
Cc1ccc(C2C(C#N)=C(N)Oc3c2sc2ccccc32)o1 (configuration not stated)	?
NC(CSCC(=O)O)C(=O)O (configuration not stated)	-9%
Cc1ccc(NCC(=O)N/N=C\C(Br)=C\c2ccccc2)cc1	-14%
Cc1cccc(OCC(=O)Nc2nc3ccc([N+](=O)[O-])cc3s2)c1	-17%
Cc1ccc(CNC(=O)C2(c3cccs3)CCOCC2)cc1	2%
Cc1ccc(C2(CCN)CCOC(C(C)C)C2)cc1 (configuration not stated)	-3%
CCOc1ccc(C(c2c(NC(=O)c3ccccc3)sc(C)c2C)N2CCN(CCO)CC2)cc1 (configuration not stated)	?
CCn1c2ccccc2c2nnc(SCC(=O)c3ccccc3)nc21	?
Cc1ccc(C2CC(=O)Oc3ccc(O)cc32)cc1 (configuration not stated)	?
O=c1sc(N2CCN(c3ccc(F)cc3)CC2)nc2ccsc12	-27%
COc1ccc(CCC(C)Nc2ccc(F)c(F)c2)cc1 (configuration not stated)	-9%
CCN(CC)C1=CC2=CC(=C(C#N)C#N)CCC2CC1 (configuration not stated)	-18%

Bioassay records as filed in PubChem.
